Bioassay records deposited in PubChem by several laboratories.
BJeLR viability = BJeLR cell viability loss; BJeLR (HRASV12) viability, CellTiter-Glo ATP luminescence, 48 h; reference of the scale not given here; inhibition, % (no concentration beside the values); 300,000 tested, 0.17% active; AID 1554;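 active = replicate mean above 50%; inconclusive = above 50% but judged a plate artefact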;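 also: 50 nL library stock added to about 25 µL; numbers are from one replicate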
ugtP null kill = kills S. aureus RN4220 lacking UgtP | S. aureus RN4220 ugtP deletion, OD600 growth, 16 h; some inactives read as strong as hits | 330,000 tested, 0.54% active | AID 1259309 | growth inhibition, % (no concentration beside the values);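 active = z-score under -3 and OD600 up to 0.15 on both plates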;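 also: plate controls were untreated wells for no effect and antibiotic for full effect; wells of about 80 µL received 100 nL stock; the first replicate is given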
RN4220 kill = S. aureus RN4220 growth inhibition; OD600, 16 h; inhibition, % (test concentration not listed); 330,000 tested, 0.33% active; AID 1259311;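 active = z-score of -3 or lower and OD600 up to 0.18 on both plates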;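 also: plate controls were untreated cells for no effect and reference antibiotic for full effect; stock transfer was 100 nL into about 80 µL; one replicate is shown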
Bead autofluor = flagged as autofluorescent in microsphere protease counterscreen; compound autofluorescence counterscreen, microsphere flow cytometry; active compounds read high; fluorescence intensity (concentration not given with the values); 360,000 tested, 3.1% active; AID 624483;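 active = at least 3 SD above the mean of all compounds, about 16000 in these data; inconclusive = too few beads counted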;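 also: 100 nL of 1 mM stock went into each well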
PrP 5UTR inh = suppresses PrP 5' UTR mRNA reporter expression. cell-based PrP 5' UTR mRNA reporter, plate reader. inhibition, % (test concentration not listed). 340,000 tested, 0.35% active;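 active = every replicate at 50% or more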;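 also: 0 = median of the neutral control wells; tested in H4 reporter cells; numbers are from one replicate; inactives centre near -14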
Mtb hypoxia inh = inhibitors of hypoxia-regulated fluorescent reporter in Mycobacterium tuberculosis | M. tuberculosis hypoxia-regulated fluorescent reporter, fluorescence | fluorescence inhibition, % (concentration not given with the values) | 300,000 tested, 0.1% active;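 active = 35 to 45% if threefold the growth effect, above 45% if 1.5-fold the growth effect; inactive = the rest, general growth blockers included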;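 also: wells of about 50 µL received 100 nL stock; 0% = vehicle wells and 100% = reference inhibitor wells; whole bacteria with a GFP reporter of the hypoxia response; strong numbers were not always called active; many hits fall short of the cut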
Mtb hypoxia inh growth = recorded beside Mtb hypoxia inh, whose call it bears; growth inhibition, %; measured here: M. tuberculosis growth (absorbance);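 0% = vehicle and 100% = reference antibiotic; read after six days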
Numbers without * were called inactive; ? = inconclusive; . = no result given. An unsorted share of the library. About 4% of those tested had a hit in this group.

SMILES	BJeLR viability	ugtP null kill	RN4220 kill	Bead autofluor	PrP 5UTR inh	Mtb hypoxia inh	Mtb hypoxia inh growth
CCc1nnc(NS(=O)(=O)c2ccc(N=Cc3c(C)[nH]n(-c4ccc(Cl)cc4)c3=O)cc2)s1	13	.	.	2244	-13	.	.
O=C(COC(=O)c1cc(Cl)ccc1[N+](=O)[O-])NCc1ccc(Cl)cc1Cl	-6	-3	-0.4	11515	-14	2	8
C[C@H](CO)N1C[C@H](C)[C@H](CN(C)CC2CC2)Oc2ccc(NC(=O)CCN3CCOCC3)cc2C1=O	.	3	2.6	3530	-51	6	8
O=C(CN1C(=O)CSc2ccc(S(=O)(=O)N3CCOCC3)cc21)NCCCN1CCCCC1	-1	0	0.7	6558	-12	4	-6
CCOc1ccc(S(=O)(=O)NC2CC2)cc1	0	2	-0.2	4250	-26	2	9
Cn1c(C(=O)O)c(CC(=O)NCc2cccnc2)c2ccccc21	-9	1	2.0	4889	-25	.	.
CS(=O)(=O)N1CCN(C(=O)c2ccc(Br)s2)CC1	-2	2	2.5	20324*	-25	7	6
CS(=O)c1ccccc1-c1nc(-c2cc(C(F)(F)F)cc(C(F)(F)F)c2)no1 (stereo not drawn)	1	15	8.4	2698	-16	.	.
CN(C)c1ccc(/C=C2\N=C(c3ccc(Cl)c([N+](=O)[O-])c3)NC2=O)cc1	4	-14	-1.8	3777	-17	-15	0
COc1ccc(N2CCN(C(=O)C3CC(=O)N(c4ccc(C)cc4)C3)CC2)cc1 (stereo not drawn)	1	11	3.1	4394	-14	5	1
Cc1ccccc1NC(=O)c1c([N+](=O)[O-])cnn1C	-6	6	0.3	3228	-13	0	9
COc1cc2c(cc1OC)C(C)N(CCc1ccc(Cl)cc1)CC2 (stereo not drawn)	-7	2	1.0	6236	.	10	10
O=C(CN1CCCCC1)N/N=C/c1cccc(Cl)c1	9	.	.	3553	-26	.	.
COc1ccc2nc3ccccc3[n+]([O-])c2c1	.	0	3.3	3817	-62	9	21
CCCCC1S/C(=N/N=C/c2cccs2)NC1=O (stereo not drawn)	-19	.	.	2711	-24	.	.
Cc1csc(N(C(=O)c2cccc(S(=O)(=O)N3CCCC3)c2)c2ccccc2)n1	-6	3	4.2	2981	-18	13	-1
COC(=O)c1ccc(CNC(=O)CNC(=O)c2sc3ccccc3c2Cl)cc1	0	8	3.9	4265	-14	8	-4
COc1ccc(NC(=O)CSC2=C(C#N)C(c3ccco3)C3=C(CCCC3=O)N2)c(OC)c1 (stereo not drawn)	0	1	1.1	3577	-4	6	14
COc1ccc(C(=O)COc2ccccc2C(N)=O)cc1	0	5	3.4	3986	-9	13	0
Cc1ccc(NC(=O)CCNS(=O)(=O)c2ccc3c(c2)oc(=O)n3C)cc1C	7	3	2.8	21974*	-19	2	5
C[C@H](NC(=O)c1ccco1)C(=O)NNC(=O)COc1cccc(C(F)(F)F)c1	.	-4	0.7	6556	0	-8	2
Cc1ccc(S(=O)(=O)CC(=O)NC(C)c2ccccc2)cc1 (stereo not drawn)	-7	6	3.4	?	-5	7	4
COc1ccc(OC)c(NC(=O)c2cc3sccc3n2C)c1	4	1	14	11293	-26	4	9
COC(=O)C1=C(c2ccc(S(C)(=O)=O)cc2)C[C@@H]2CC[C@H]1N2C(=O)NCCO	-3	.	.	3635	-22	.	.
CC(C)Sc1nsc2nc(=O)c(/C=C3\C=Nc4ccccc43)c(N)n12	-7	2	21	4078	-11	2	10

(next part)
SMILES	BJeLR viability	ugtP null kill	RN4220 kill	Bead autofluor	PrP 5UTR inh	Mtb hypoxia inh	Mtb hypoxia inh growth
CCOc1cccc(-c2c(C(=O)N/N=C/c3ccco3)nnn2-c2nonc2N)c1	-3	.	.	4410	-5	.	.
O=c1[nH]c2cc3c(cc2cc1CN(Cc1cccnc1)C(=S)NCc1ccco1)OCCO3	-6	-6	1.6	4121	-20	-1	-5
COc1cccc(/C=N/NC(=O)c2cccc([N+](=O)[O-])c2)c1OS(=O)(=O)c1ccc(C)cc1	-3	.	.	4084	-20	.	.
CCCCNC(=O)/C(=C/c1ccccc1)NC(C)=O	9	5	5.4	1937	-10	7	5
CCc1ccc2nc(SCC(=O)N3CC(=O)Nc4ccccc43)c(C#N)cc2c1	14	8	3.1	4466	-38	.	.
NS(=O)(=O)c1ccc(CNS(=O)(=O)Cc2ccc(Cl)cc2)cc1	-1	4	1.2	3972	-23	-1	-8
O=C(NCc1ccc(Cl)cc1)C(=O)Nc1nccs1	-2	-5	3.6	4076	-20	-12	-8
Fc1cccc(Cl)c1CSc1nnc(CNc2ccccc2)o1	1	-1	15	3874	-25	16	13
CCOC(=O)Cc1nn(C(C)C)c(=O)c2ccccc12	-2	-10	0.4	4126	-15	-4	10
COC(=O)c1cn(NC(=O)c2cnccn2)c(=O)c2ccccc12	-16	2	9.4	4480	-5	8	11
CCOC(=O)CC(=O)COc1nc2cc3c(nc2o1)CCCC3	3	-2	2.3	3452	-30	9	-4
CCOC(=O)c1cnc2cc(-c3ccc(Br)cc3)nn2c1C	-2	-10	7.1	4143	-43	-1	1
O=C(CSc1nc2ncc(Cl)cc2[nH]1)N(Cc1ccccc1)C1CCS(=O)(=O)C1 (stereo not drawn)	6	1	13	3257	-6	10	6
Oc1ccc(C=Nn2c(-c3ccccc3)n[nH]c2=S)cc1	.	-1	2.7	.	.	4	7
CC1c2[nH]c3ccccc3c2C[C@H]2C(=O)N(CCO)CC(=O)N12 (stereo partly drawn)	1	3	2.6	3750	-23	-7	10
O=C(COC(=O)c1n[nH]c2ccccc12)Nc1cccc(S(=O)(=O)N2CCOCC2)c1	-3	12	6.3	3155	-21	5	1
CCc1cc(=O)oc2cc(C)cc(OC(C)C(=O)NCCCn3ccnc3)c12 (stereo not drawn)	5	5	-0.6	5379	-11	12	5
Cc1cccnc1CN1CCN(C(=O)c2cc(COc3ccc4ncccc4c3)on2)CC1	13	-1	5.3	4557	-13	-5	5
Cc1ccc(NC(=O)CSc2nnc(N)s2)cc1S(=O)(=O)N1CCOCC1	3	3	-1.1	4628	-10	4	0
Cc1ccc(-c2nc(N(C)C3CCN(C)CC3)c3ccccc3n2)cc1	5	-18	-9.3	8314	-12	14	20
CCNc1oc(/C=C/c2ccc(OCC)cc2)nc1C#N	25	12	1.2	3388	-15	3	4
[O-][n+]1c(/C=C/c2ccccc2)ccc2ccccc21	6	2	3.2	3711	-66	11	8
O=C(COC(=O)c1ccc(S(=O)(=O)N2CCCCCC2)cc1)NCc1ccc(F)cc1	.	6	2.1	6666	-30	8	-3
CC(C)(C)OC(=O)CNC(=O)c1nc[nH]c1C(=O)N1CCN(c2ccccc2)CC1	2	.	.	2956	-22	.	.
O=C(Cn1nc(C(F)F)cc1C1CC1)NCCC1=CCCCC1	0	-2	-7.7	5489	-17	5	-4

Continuation.
SMILES	BJeLR viability	ugtP null kill	RN4220 kill	Bead autofluor	PrP 5UTR inh	Mtb hypoxia inh	Mtb hypoxia inh growth
COc1ccc(C)cc1NC(=O)C1CCN(S(C)(=O)=O)CC1	-5	3	2.7	3984	-4	-1	13
COC(=O)c1cc(C(=O)Nc2cc(C)on2)cc([N+](=O)[O-])c1	-6	9	2.2	3553	-23	7	10
O=Cc1cn(Cc2cccc(F)c2)c2ccccc12	0	-1	2.6	2599	9	2	-7
COc1ccc2c(C)cc(SCC(=O)Nc3nsc(-c4ccc(C)cc4)n3)nc2c1	-12	7	-3.4	5578	13	.	.
Cc1ccc(OCCC(=O)OC(C)C(=O)Nc2ccc(Cl)cn2)cc1 (stereo not drawn)	-10	-5	-3.5	4430	-7	-6	-7
CCc1ccc(CN(C)CC(O)COc2cccc3ccccc23)cc1 (stereo not drawn)	-1	-19	-2.9	3759	-9	5	-4
COc1ccc(Nc2cc3n(c(=O)n2)CCc2cc(OC)c(OC)cc2-3)c(C)c1	7	3	10	3557	8	5	-6
O=c1cc(-c2ccccc2)[nH]n1-c1ccccc1	.	-1	5.9	3612	-13	7	3
CCOc1ccc(C=NNC(=O)Cc2csc(Nc3cccc(C(F)(F)F)c3)n2)c(OCC)c1	.	-26	-2.5	.	.	-2	6
CCOc1ccc(/C=N/n2cc(-c3ccccc3)[nH]c2=S)cc1	-3	.	.	4671	-32	.	.
CCOc1ccc(NC(=O)c2cccc(OC(=S)N3CCOCC3)c2)cc1	-5	1	2.7	4686	10	6	13
NC(=O)c1ccc(SCC(=O)OCC(=O)N2CCN(C(=O)c3ccco3)CC2)c([N+](=O)[O-])c1	-9	3	2.9	5367	-3	1	2
O=C(O)c1cccc(-n2cccc2C=NO)c1	.	-11	6.9	.	.	-3	10
Cc1c(C(=O)O)sc2nc(CSc3ncc(C(F)(F)F)cc3Cl)[nH]c(=O)c12	-8	10	8.5	3661	8	12	4
O=C(Nc1cccnc1)Nc1ccccn1	8	14	3.9	2263	-5	.	.
O=C(NC1CCCCC1)c1cccnc1Sc1ccccc1Cl	1	6	1.2	5449	-18	4	8
O=C(NCCc1ccccn1)C1CCCN(S(=O)(=O)Cc2ccccc2)C1 (stereo not drawn)	6	5	6.1	4096	-2	14	5
CCOC(=O)Cc1nnc(NC(=O)CSc2ccccc2)s1	-4	-2	3.3	3637	13	.	.
Cc1cc(C)n(-c2cc(C)c(C)cc2Br)n1	1	-1	3.3	4665	2	.	.
COc1ccc(-n2nc(C(=O)NCC(=O)Nc3cc(OC)ccc3OC)c3ccccc3c2=O)cc1	-13	-3	2.9	3303	-15	13	1
O=Cc1cc2cc3c(cc2nc1Cl)OCCO3	14	13	6.0	.	.	2	4
O=C(O)C1CN(c2nc(Cl)ccc2[N+](=O)[O-])C1	6	-1	-0.6	4504	-21	1	11
C/C(C=NNC(=O)C(O)c1ccccc1)=C\c1ccccc1 (stereo not drawn)	.	-9	-0.9	.	.	-4	-1
CCCCC(=O)Nc1ccc(C(=O)NNC(=S)NC(=O)c2ccco2)cc1	-3	16	11	4505	-21	2	7
C=CC[C@@H](CC(=O)N[C@@H](CO)Cc1ccccc1)C(=O)N[C@@H](COC(=O)[C@@H](CC=C)Cc1ccc(F)cc1)Cc1c[nH]c2ccccc12	.	-17	-1.9	3705	9	-2	10

(next part)
SMILES	BJeLR viability	ugtP null kill	RN4220 kill	Bead autofluor	PrP 5UTR inh	Mtb hypoxia inh	Mtb hypoxia inh growth
O=C(CC(C(=O)O)C1CCCO1)NCc1ccccc1 (stereo not drawn)	1	1	0.1	3812	-18	14	12
COC(=O)c1cc(NC(=O)c2cccnc2)ccc1N1CCOCC1	-7	2	8.2	3904	-14	7	4
O=C(OCC(=O)C12CC3CC(CC(C3)C1)C2)c1ccccn1	3	-1	-0.3	5516	-13	-1	1
COc1ccc2oc(=O)c(C(C)=NNc3ccccc3)cc2c1	.	-3	5.1	.	.	10	-1
O=S(=O)(c1ccccc1F)N1CCN(CC(O)c2ccccc2)CC1 (stereo not drawn)	8	2	5.5	3765	-18	7	1
O=C(NCC1CCCO1)c1cc2ccccc2oc1=O (stereo not drawn)	-5	-1	1.5	2181	-19	3	-5
O=S(=O)(Nc1cccnc1Cl)c1ccc(F)cc1	-3	4	5.6	3707	-14	-10	-9
Cc1cccc(NC(=S)NCC(c2cccnc2)N(C)C)c1 (stereo not drawn)	-8	1	0.4	2375	-19	7	4
O=C(N/N=C/c1ccncc1)C1CC1(c1ccccc1)c1ccccc1 (stereo not drawn)	0	.	.	4431	0	.	.
N/C(=N\OS(=O)(=O)c1ccc(Br)cc1)c1ccncc1	4	5	5.8	21736*	-16	7	-5
CCCC(C)NC(=O)c1cc(Cl)ccc1OC (stereo not drawn)	9	-2	2.4	2497	-11	.	.
C/C(=N\Nc1nc2ccccc2s1)c1ccc(Br)s1	14	.	.	2228	-53	.	.
O=C(COC(=O)COc1ccccc1[N+](=O)[O-])NCc1ccc2c(c1)OCO2	.	1	-0.6	4288	5	2	2
O=c1c(Cl)c(NCCCO)cnn1-c1nc2ccccc2[nH]1	0	9	15	4606	-51	.	.
